Source: PubChem BioAssay (ICCB-Longwood Screening Facility, Harvard Medical School)
Ba CapD inh: Bacillus anthracis CapD inhibitors, primary screen, biochemical, fluorescence intensity. CapD gamma-glutamyltranspeptidase (Bacillus anthracis Ames Ancestor). purified CapD enzyme, fluorescence intensity read-out; stronger effect = lower value; some hits fall short of the stated cut. z-score (no concentration beside the values). 0.23% of 140,000 active. AID 492967, 2010;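 active = z-score under -4 in either of two replicates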;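 also: stock transfer was 100 nL into about 40 µL; score is relative to mean and spread of the plate; one replicate is shown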
AID504770: growth inhibition of E. coli YBA685, primary screen, V. cholerae RctB inhibitors. E. coli YBA685 rctB-dependent plasmid, OD600 growth, 3 h; stronger effect = lower value. 0.27% of 130,000 active. z-score (test concentration not listed);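 active = z-score under -2 on both plates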;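 also: wells of about 30 µL received 100 nL stock; score is relative to mean and SD of the test wells; the first replicate is given; strong numbers were not always called active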
Starred values were filed as active, the others as inactive; · = no result given; & = joins results of further samples.

SMILES	Ba CapD inh	AID504770
COc1ccc(C2c3[nH]c4ccccc4c3CCN2C(=O)c2ccc(Cl)c(Cl)c2)cc1 (configuration not stated)	0.57	·
Cn1c(=O)oc2cc(S(=O)(=O)NCCC(=O)Nc3cccc(F)c3)ccc21	-0.33	-2.7
Cc1ncc(CO)c(/C=N/NC(=O)c2cc3ccccc3cc2O)c1O	0.55	·
NC(=O)Cn1c2[n+](c3ccccc31)CC(O)CS2 (configuration not stated)	·	-0.45
CCN(CC)CCNc1nc2c(c(=O)n(C)c(=O)n2C)n1C(C)c1ccccc1 (configuration not stated)	-0.56	0.45
Cc1ccc(C(C#N)c2ccc(Cl)nn2)cc1 (configuration not stated)	-0.19	2.4
CCN(CC)C(=O)c1ccc[n+](CC(N)=O)c1	-0.15	-0.1
CS(=O)(=O)c1ccc(/C=C/C(=O)Nc2ccc(F)cc2)cc1	-0.65	·
Cc1ccccc1NC(=O)C(C)Sc1nc2ncccc2[nH]1 (configuration not stated)	0.31	0.15
C=CCN1CC[C@]23c4c5ccc(O)c4O[C@H]2C(=O)CC[C@@]3(O)[C@H]1C5	0.2	·
CNC(=S)NC1CCS(=O)(=O)C1 (configuration not stated)	-0.22	-0.2
Cc1ccc(S(=O)(=O)CCc2nc(S(=O)(=O)c3ccc(C)cc3)c(N(C)C)o2)cc1	-0.37	0.55
CC(C)(C)C1CCc2oc3ccc(NS(=O)(=O)c4ccccc4)cc3c2C1 (configuration not stated)	-0.065	·
CCCNC(=O)N1CCN(c2ccc(Cl)c(Cl)c2)CC1	-0.76	-0.8
O=C(CSc1ccc(Cl)cc1)N1CCc2c([nH]c3ccccc23)C1C(F)(F)F (configuration not stated)	-0.17	-0.8
Cc1ccc(S(=O)(=O)N2c3ccccc3S(=O)c3ccccc32)cc1	·	-0.55
CCCCc1c2c(nn1-c1ccccc1F)CC(c1ccccc1)CC2=O (configuration not stated)	-0.22	-0.4
COc1ccc(N=Cc2ccc(Br)s2)cc1	·	-0.45
CCN(CC)c1nc(C)nc2sc(C(=O)N3CCCCCC3)c(C)c12	8.7	-0.9
CCC(C)NC(=O)c1ccc(Sc2ccc(Cl)cc2)c(NC(C)=O)c1 (configuration not stated)	-1.2	2.8
O=S(=O)(c1ccccc1)n1nc(-c2ccccc2)nc1NCc1cccs1	-0.25	-0.05
CC(C)n1c(O)c(N=NC(=S)NCCN2CCOCC2)c2ccccc21	·	0.45
CC(C)N(C(=O)c1ccc(C(=O)N2CCCCC2)cc1)C(C)C	0.23	-0.45
O=C(CS[n+]1ccccc1)c1ccc(Br)cc1	-0.23	-0.4
Cc1ccc(C)c(COc2ccc(C)nc2NC(=S)NCc2ccccc2)c1	0.49	0.9

The list continues.
SMILES	Ba CapD inh	AID504770
CCOC(=O)C1=C(C)N=c2s/c(=C\c3c(C)[nH]c4ccccc34)c(=O)n2C1c1ccc(OC)cc1OC (configuration not stated)	-0.42	·
Cc1cc(C)[n+]2oc(C)cc2n1	0.29	-0.75
CC(C)CNC(=O)c1ccc2c(c1)[nH]c(=O)n2C(C)C	·	-0.55
CC(CC(=O)Nc1ccc(Cl)cc1)NCc1nnc2ccccn12 (configuration not stated)	·	0.6
CCN(CC)c1ccc(N2C(=O)/C(=C/c3ccccc3)SC2=S)cc1	0.39	0.15
Cc1noc(C)c1S(=O)(=O)N1CCCN(C/C(O)=C(\C#N)c2nc3ccccc3[nH]2)CC1	·	0
Cc1n[nH]c(C)c1Cc1c(F)cccc1Cl	0.24	1.1
CCCCCCN1C2=NCCN2c2ccccc21	-0.68	·
Cc1cccc2nc(CSc3nnc(CN4CCCC4)n3Cc3ccccc3)cc(=O)n12	·	2.6
CSC1=NCCN1C(=O)c1ccccc1	-0.12	-0.3
CCCN1C(=O)c2cc(C(=O)Nc3ccc(OC)c(OC)c3)ccc2C1Nc1ccc(OC)c(OC)c1 (configuration not stated)	0.01	-0.7
NNC(=O)CSCc1nc(-c2ccccc2)cs1	0.59	0.35
Cc1cc(-c2ccc(NC(=O)C3CC3)c(C)c2)ccc1NC(=O)C1CC1	0.35	0.6
CSCC[C@@H]1NC(=O)[C@@H]2CCCN2C1=O	·	-0.4
c1ccc(Sc2cnc3ccccc3n2)cc1	-0.96	1.8
N/C(=N\S(=O)(=O)c1ccc(Cl)cc1)c1ccccc1	-0.71	1.4
CCc1cccc(NC(=O)CCn2c(=O)c3cccn3c3ccccc32)c1	0.81	0
NC(=O)CC1NC(=O)c2ccccc21 (configuration not stated)	-0.18	0.1
Cc1cc(-n2c(C)cc(C(=O)CSc3nnc(COc4ccccc4Cl)o3)c2C)no1	·	-0.4
CC(C)CC1C(=O)N2CCC[C@H]2C2(O)O[C@](NC(=O)C3C=C4c5cccc6[nH]c(Br)c(c56)C[C@H]4N(C)C3)(C(C)C)C(=O)N12 (some centres not stated)	-0.01	0.25
CCC1Sc2ccccc2NC1=O (configuration not stated)	-0.27	-0.55
CCOC(=O)Cn1c(-c2c(Cl)cccc2Cl)noc1=O	-0.07	-0.7
O=C(CCCSc1nc2ccccc2s1)Nc1nccs1	·	0.25
O=C(O)CNC(=O)CSc1ccccn1	-0.14	-0.55
N#CCCN(C(=O)Cc1noc2ccccc12)c1ccccc1	-0.94	-0.15

4 entries drawn at random from those above, as already listed:
SMILES	Ba CapD inh	AID504770
COc1ccc(N=Cc2ccc(Br)s2)cc1	·	-0.45
CC(C)CNC(=O)c1ccc2c(c1)[nH]c(=O)n2C(C)C	·	-0.55
Cc1ccccc1NC(=O)C(C)Sc1nc2ncccc2[nH]1 (configuration not stated)	0.31	0.15
CCOC(=O)C1=C(C)N=c2s/c(=C\c3c(C)[nH]c4ccccc34)c(=O)n2C1c1ccc(OC)cc1OC (configuration not stated)	-0.42	·

Compound profiles, as listed above:
N#CCCN(C(=O)Cc1noc2ccccc12)c1ccccc1 is listed as Ba CapD inh = -0.94; AID504770 = -0.15
NC(=O)CC1NC(=O)c2ccccc21 (configuration not stated) is listed as Ba CapD inh = -0.18; AID504770 = 0.1

Remaining list, next part
SMILES	Ba CapD inh	AID504770
CCN(CC)S(=O)(=O)c1cccc(-c2nnc(SCc3nc4cc(C(=O)O)ccc4c(=O)[nH]3)o2)c1	·	0.15
NC(=O)C1CCN(C2CC(=O)N(Cc3ccc(F)cc3)C2=O)CC1 (configuration not stated)	-0.15	-0.8
COc1ccc(NC(=O)CC2(Cc3ccccc3)CCOC(C)(C)C2)cc1 (configuration not stated)	0.71	-0.3
O=C1CS/C(=N/C(=O)NC2(C(F)(F)F)Oc3ccc(Cl)cc3O2)N1 (configuration not stated)	·	1.7
N/C(CS(=O)(=O)c1ccc(Cl)cc1)=N\O	0.36	·
Cc1cc(C(=O)Nc2sc3c(c2C(N)=O)CCCC3)on1	-3.9	0.35
CCc1cc2c(s1)SC(c1ccc([N+](=O)[O-])cc1)NC2=O (configuration not stated)	-0.71	·
Cc1cc(NC(=O)/C=C/c2ccco2)n(-c2nc3ccccc3n2Cc2cccc(Oc3ccccc3)c2)n1	·	0.05
COc1cc(C)c(NS(=O)(=O)c2cccs2)cc1OC	·	0.35
COc1ccc(-c2cc3nc(C)c(CCC(=O)NC(C)CCc4ccco4)c(C)n3n2)c(OC)c1 (configuration not stated)	3.7	-0.1
CCC1(C)CC(CCNCc2ccc(OC)c(OC)c2)(c2ccc(OC)cc2)CCO1 (configuration not stated)	3.4	·
CCNc1nc(-c2ccc(NC(=O)CC)cc2)cs1	·	2.4
CCOc1ccc(NC(=O)CSC2=C(C#N)C(c3ccncc3)C(C(=O)Nc3ccccc3)=C(C)N2)cc1 (configuration not stated)	-0.62	·
O=C(NCc1ccc(F)cc1)C1CCC(=O)N1C1CCCC1 (configuration not stated)	0.31	1.6
COc1ccc(-c2nc(C#N)c(NC3CCCCC3)o2)cc1	88	0.65
Cc1cc(C2CCCCC2)n(O)c(=O)c1	0.53&-0.06	0.55
Cc1ccc(C(=O)Nc2ccccn2)cc1	0.015	-1.2
CN(C(=O)c1snc2ccc(Cl)cc12)c1ccccc1	-0.71	1.7
O=C(N=C1N=C2C=CC=CN2Cc2ccccc21)c1ccncc1	·	-0.6
O=C(NNC(=O)C1CC(c2cccs2)=NO1)Nc1ccc(Cl)cc1 (configuration not stated)	0.24	·
CCCCn1c(SCC)nc2cc(S(N)(=O)=O)ccc21	·	-0.15
CN1C(=S)Cc2cc(Br)ccc21	·	0.15
O=C(C1COc2ccccc2O1)N(CC1CCCO1)c1nc2ccccc2s1 (configuration not stated)	·	0.25
COc1ccc(-c2nnc(NC(C)=O)o2)cc1	-0.62	0.15
Brc1ccc2c(c1)OCCOCCOCCO2	·	0

Entries from the list above that contain a furan ring, fused or not (3):
SMILES	Ba CapD inh	AID504770
CC(C)(C)C1CCc2oc3ccc(NS(=O)(=O)c4ccccc4)cc3c2C1 (configuration not stated)	-0.065	·
Cc1cc(NC(=O)/C=C/c2ccco2)n(-c2nc3ccccc3n2Cc2cccc(Oc3ccccc3)c2)n1	·	0.05
COc1ccc(-c2cc3nc(C)c(CCC(=O)NC(C)CCc4ccco4)c(C)n3n2)c(OC)c1 (configuration not stated)	3.7	-0.1

Additional entries
SMILES	Ba CapD inh	AID504770
CCn1c(-c2ccc3c(c2)OCCO3)cnc1SCc1nc(-c2ccccc2)no1	·	1
CC(C)(C)c1cc(CN(Cc2cc(C(C)(C)C)c(O)c(C(C)(C)C)c2)C2CCCCC2)cc(C(C)(C)C)c1O	0.87	·
COc1ccc(CNc2ccc(C)c(C)c2)cc1OC	0.77	1.8
CC(NS(=O)(=O)/C=C/c1ccccc1)C(=O)O (configuration not stated)	·	0.8
O=C1CC(c2ccccc2F)c2ccc3ccccc3c2N1 (configuration not stated)	-0.47	·
CN(C)CCn1c(C(=O)Nc2ccccc2)cc2ccccc21	-0.64	-0.75
c1ccc(Nc2nc3c(ccc4ccccc43)s2)cc1	5.4	-0.55
CC1CCN(C(=O)CCCOc2ccc(Cl)cc2)CC1	·	0.05
Cc1cc(C)c(NC(=S)NCCCN2CCOCC2)c(C)c1	-0.38	·
COc1ccc(N2CCN(c3ncnc4sc(C(=O)NCc5ccco5)c(C)c34)CC2)cc1	-0.76	·
Cc1c(C(=O)O)nnn1-c1ccccc1	·	-0.75
CC(C)C(=O)N1N=C2CCCCC2C1(O)C(F)(F)F (configuration not stated)	78	0.95
C=C1C(C(=O)NCC2CCCO2)C1C(=O)NCC1CCCO1 (configuration not stated)	-0.43	2.8
C/C(=N\O)C(=O)c1ccc(-c2ccccc2F)cc1	0.69	0.95
Cc1ccc(CNC(=O)c2n[nH]c3c2CCCC3)cc1	-0.28	0.85
COc1cc(C2N(Cc3ccccc3)CCN2Cc2ccccc2)ccc1OCc1ccccc1	-1	·
Cc1ccc(N2C(=O)c3ccc(-c4nc5ccccc5o4)cc3C2=O)cc1C	0.06	-0.65
CCSc1nc2ccccc2c(=O)n1C1CCCC1	0.58	-0.5
NC(=O)c1cc2cc(Br)ccc2oc1=Nc1ccc(C(=O)c2ccccc2)cc1	0.29	·
O=C(COc1ccccc1)Nc1ncc2c(n1)CCCC2=O	0.48	-0.8
O=C1NC2(CCCCC2)C(=O)N1CN1CCCC1c1ccc2c(c1)OCCCO2 (configuration not stated)	·	-0.95
CC(C)(CO)NC(=O)C12CC3CC(CC(Cl)(C3)C1)C2	0.44	-0.15
O=C1c2ccccc2-c2onc3c(Sc4ccccc4)cc(Sc4ccccc4)c1c23	-0.88	·
CC12c3ccccc3C(c3ccccc31)C1C(=O)N(CCO)C(=O)C12 (configuration not stated)	6.1	·
Cc1nc(C)nc(N(Cc2ccccc2Cl)Cc2ccccc2Cl)n1	-0.41	-0.85

Single values from above:
Cc1cc(C)c(NC(=S)NCCCN2CCOCC2)c(C)c1 | Ba CapD inh: -0.38
COc1cc(C2N(Cc3ccccc3)CCN2Cc2ccccc2)ccc1OCc1ccccc1 | Ba CapD inh: -1

(continued)
SMILES	Ba CapD inh	AID504770
O=C(O)c1ccccc1-c1ccccc1C(=O)Nc1c[nH]c(=O)[nH]c1=O	-0.43	-0.1
CN(C1CCCCC1)S(=O)(=O)N1CCCC(C(=O)NCCCc2ccccc2)C1 (configuration not stated)	-0.1	-1
CC(C)N(C(=O)CO[C@@H]1[C@H]2OC3(CCCCC3)O[C@H]2O[C@@H]1C1COC2(CCCCC2)O1)c1ccccc1 (some centres not stated)	-0.12	·
CCOC(=O)c1cc(-c2ccccc2)n(CC(=O)O)c1C	-0.43	-0.45
Cc1ccc(C)c(-n2c(CNC(=O)c3ccco3)nnc2SCC(=O)Nc2nc3ccccc3s2)c1	-0.4	·
O=C(Nc1ccc2nsnc2c1)c1ccccc1	24	-0.75
COc1cc(OC)cc(C(=O)n2nc(C)cc2C)c1	-1.4	-0.2
O=C(Nc1ccc(NC(=S)Nc2cccc(Cl)c2Cl)cc1)c1ccccc1O	-0.63	·
Cc1ccc(C)n1-c1ccc(C(=O)OCC(=O)N2CCCC2)cc1	·	0.55
O=C(c1ccco1)N1CCNCC1	0.065	-0.5
CCOC=C1C(=O)c2ccccc2C1=O	3.7	0.4
Cc1ccc(NC(=O)/C=C2/SC(=O)N(CN3CCCCC3)C2=O)cc1	5.9	0.35
Cc1cc2nc(Oc3ccccc3)c3ccccc3n2n1	·	-1.1
Cc1cccc(Cl)c1S(=O)(=O)N1CCC2(CC1)C(=O)NCN2c1ccccc1	-0.58	·
CN1CCCc2cc(CN)ccc21	·	0.05
CCn1c(C(=O)O)c(CC(=O)Nc2nc3ccc(OC)cc3s2)c2ccccc21	-0.41	·
COc1cccc(NC(=O)CCSc2nnc3ccc4ccccc4n23)c1	-1.2	-0.6
Cc1c(Cl)c(O)c(Cl)c(C)c1N(S(=O)(=O)c1ccccc1)S(=O)(=O)c1ccccc1	-0.05	0.85
COC(=O)C1=C(Nc2ccccc2NS(=O)(=O)c2cn(C)cn2)CSC1	-0.32	0.1
